# Pin1 inh: blocks the human prolyl isomerase Pin1. Q13526. Pin1 FP peptide displacement, HiFluor488, 10 min. Potency, µM (titrated, usually from 115 µM), for inactives: at the highest dose activity, negative = inhibition, hits mostly inhibitors. 390,000 tested, 0.009% active. AID 504891; active = well fitted inhibition curve with a large enough effect in the polarisation, with a control signal flat, not every such curve was filed as active; inconclusive = small, poorly fitted or top-dose-only effect, or effect the other way, or a change in a side signal; inactive = no such curve, though single readings can be large or run the other way; the % refers to the polarisation; also: potency is read from the fitted curve at half-maximal effect
# Target sequence (Q13526 whole entry, looked up): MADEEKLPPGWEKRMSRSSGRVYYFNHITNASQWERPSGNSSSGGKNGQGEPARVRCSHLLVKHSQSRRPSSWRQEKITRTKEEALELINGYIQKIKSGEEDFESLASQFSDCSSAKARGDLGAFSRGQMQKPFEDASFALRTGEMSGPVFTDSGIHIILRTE
# PGK inhibitor: inhibitors of T. brucei phosphoglycerate kinase | P07378 | PGK/GAPDH coupled, Kinase-Glo luminescence, 60 min | Potency, µM (titrated, usually from 57.5 µM), for inactives: top-dose activity change, negative = inhibition, usual class: inhibitors | 380,000 tested, 0.043% active; also: potency is read from the fitted curve at half-maximal effect; nearly all actives have a fitted effect of over 60% in size
#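 Luminescent ATP detection (Kinase-Glo Plus) follows a 60-minute room-temperature incubation, with wells lacking PGK as controls. Buffer: 100 mM TEA (pH 7.6), 5 mM MgCl2, 0.01% Tween-20. Coupling enzyme GAPDH (100 nM final) supplies unstable 1,3-BPG in-well.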
# PI4K2A block: inhibitors of human PI4K2A; purified PI4K2A, ADP-Glo luminescence, 1 h; active compounds read low; activity change, negative = inhibition, % at 76.9 µM; 420,000 tested, 0.13% active; in the data active = activity change below about -50%; inconclusive = mostly about -30% to -49%;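 also: -100% = wells without enzyme as full effect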
# Target sequence (Q9BTU6 whole entry, looked up): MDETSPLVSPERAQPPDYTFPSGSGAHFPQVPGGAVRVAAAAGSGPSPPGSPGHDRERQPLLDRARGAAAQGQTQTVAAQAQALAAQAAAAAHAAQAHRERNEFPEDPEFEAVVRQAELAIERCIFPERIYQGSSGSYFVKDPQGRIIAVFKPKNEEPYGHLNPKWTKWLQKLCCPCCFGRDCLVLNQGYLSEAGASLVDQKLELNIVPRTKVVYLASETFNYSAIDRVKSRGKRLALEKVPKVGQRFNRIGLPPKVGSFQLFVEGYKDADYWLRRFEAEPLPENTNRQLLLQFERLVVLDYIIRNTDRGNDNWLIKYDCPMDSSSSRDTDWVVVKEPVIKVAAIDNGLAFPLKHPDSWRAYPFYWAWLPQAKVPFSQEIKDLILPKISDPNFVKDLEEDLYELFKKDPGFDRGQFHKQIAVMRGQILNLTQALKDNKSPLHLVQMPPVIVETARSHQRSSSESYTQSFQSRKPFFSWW
#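 Compounds are screened against recombinant PI4K2A using PI as substrate and ATP, the latter dispensed at 300 microM. Reactions run one hour at ambient temperature before ADP-Glo detection; full inhibition defined by wells lacking enzyme.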
# GLS inhibitor: inhibitors of human glutaminase (GLS) | Potency, µM (series often up to 45.5 µM), inactives show at the highest dose activity change, negative = inhibition, usual class: inhibitors | 410,000 tested, 0.21% active | GLS enzymatic activity, qHTS titration; also: potency is read from the fitted curve at half-maximal effect
#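 Assay buffer: 45 mM KH2PO4 pH 8.2, 0.02% Tween-20. hKGA acts on L-glutamine (1 mM solution added); product glutamate is reported by an oxidase/peroxidase Amplex Red coupling, with fluorescence taken at baseline and 30 min.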
# * marks the source's active call; other numbers are inactive results; i = inactive; ? = inconclusive; nt = not tested or not shown; & = joins results of further samples; [ ] = remark or other dose. Unless noted, calls follow the shape of the dose curve; as a rule, active = well fitted curve in the direction sought with a large enough effect; inconclusive = small, poorly fitted or top-dose-only effect, or another doubt; inactive = no such curve, though single readings can be large; an effect the other way counts as inactive or inconclusive. Unless noted, % is scaled to controls: 0 for no effect and ±100 for the full control effect. Only part of the results is shown; rates above refer to the full screens.
SMILES,Pin1 inh,PGK inhibitor,PI4K2A block,GLS inhibitor
Cc1cccc(C(=O)N[C@H](C(=O)OCc2cc(=O)n3c(n2)sc2ccccc23)C(C)C)c1,?,-22%,-13,-30%
C=CCN(c1ccccc1)S(=O)(=O)c1cc2c(cc1C)NC(=O)CO2,-1%,-10%,-3,1%
O=C(NCc1ccc2c(c1)OCO2)c1cccc(N2CCCC2=O)c1,-3%,i,5,4%
CCC(Cn1nnc2ccccc2c1=O)NC(=O)Nc1cc(C)cc(C)c1 (stereo unspecified),8%,i,0,-12%
COC(=O)c1cc(NC(=O)CN(C)C2CCS(=O)(=O)C2)cc(C(=O)OC)c1 (stereo unspecified),-3%,-7%,-4,8%
Cc1[nH]c(=O)[nH]c(=O)c1S(=O)(=O)NCCOC12CC3CC(CC(C3)C1)C2,-8%,1%,0,4%
CCC1(c2ccccc2)C(=O)NCNC1=O,4%,6%,3&4&-7,10%&-10%
CC1=C(C(=O)Nc2cccnc2)C(c2cccc(O)c2)n2nc(SCc3ccccc3)nc2N1 (stereo unspecified),3%,0%,-2,12%
O=c1[nH]c(=O)n(C2C[C@H](O)[C@@H](CO)O2)cc1C(F)(F)F (stereo partly specified),-13%,1%,0,1%&-6%
CCC(=O)N1C(=O)CCN(C(C)=O)c2ccccc21,-10%,3%,-5,10%
CCn1c(COc2cccc(C)c2)nnc1SCC(=O)Nc1cccc(C(=O)O)c1,-2%,-2%,-2,1%
O=C(O)Cn1c(O)c(C2=c3ccccc3=NC2=O)sc1=O,?,-1%,-1,-10%

# Continued; the last 2 above are carried over.
SMILES,Pin1 inh,PGK inhibitor,PI4K2A block,GLS inhibitor
CCn1c(COc2cccc(C)c2)nnc1SCC(=O)Nc1cccc(C(=O)O)c1,-2%,-2%,-2,1%
O=C(O)Cn1c(O)c(C2=c3ccccc3=NC2=O)sc1=O,?,-1%,-1,-10%
Cc1ccc2nc3c(nc2c1)-c1ccccc1C3=O,-10%,-1%,2,-4%
COc1ccc(C2C(C(=O)Nc3cccnc3)=C(C)Nc3nc(-c4ccccc4)nn32)cc1OC (stereo unspecified),-10%,-11%,-9,18%
CSc1ccc(/C=C(\C(=O)O)c2ccc(S(=O)(=O)N3CCCC3)s2)cc1,1%,-15%,-6,8%
CCc1ccc(N2C(=O)c3sc4nnc(C)c(=O)n4c3C2=O)cc1,-6%,i,8,nt
Cc1cc(C)c2c(C)c(C(=O)NCc3ccc(S(N)(=O)=O)cc3)oc2c1,53%[activator],-3%,-11,5%
CC(C)NCC(O)COc1ccc(CC(N)=O)cc1 (stereo unspecified),-4%,-8%,2&-3,-7%
Cc1cc(-c2csc(NC(=O)c3ccc(C#N)cc3)n2)c(C)n1Cc1ccco1,-11%,8%,?,0%
COc1ccc(C(CNc2ncnc3sccc23)N(C)C)cc1OC (stereo unspecified),?,-3%,4,4%
O=[N+]([O-])c1cc(CN2CCN(c3cccc(C(F)(F)F)c3)CC2)c2cccnc2c1O,?,2%,-12,0%
Cc1cc(C)c(S(=O)(=O)Nc2cccc(-n3cnnn3)c2)c(C)c1,-5%,0%,5,-2%
Cc1cc2c(cc1S(=O)(=O)Nc1cccc(C(F)(F)F)c1)OCCN2C,-4%,-1%,-8,6%
O=S(=O)(NCc1ccc2c(c1)OCO2)c1ccc(Cl)s1,-2%,5%,1,-22%
CC(C)NC(=O)NC(=O)CSc1nnc(C(F)(F)F)n1C,0%,-3%,1,-11%
Cc1ccc([N+](=O)[O-])cc1-c1ccc2cccc(C)c2n1,9%,5%,0,17%
C=CCSc1n[nH]c(-c2ccc(OC)cc2)n1,0%,0%,-1,0%
CNC(=O)CSc1nnc(-c2ccco2)n1-c1ccc(C)cc1,-1%,-6%,6,-3%
CCOC(=O)c1ccc(NC(=O)CSc2nc(C)cc(=O)[nH]2)cc1,-15%,-14%,-11,?
Cc1cc2c(cc1S(=O)(=O)N(CCN(C)C)Cc1ccccc1)OCC(=O)N2,-2%,i,-1,-4%
NCCS,0%,0%,-3&2&-8,-4%&-4%&20%
Cc1ccc(N2C(=O)c3sc4nnc(C)c(=O)n4c3C2=O)cc1,-1%,-3%,0,-2%
CC(C)(C)OC(=O)[C@H](Cc1ccccc1)NC(=O)c1nc[nH]c1C(=O)NC1CCNCC1,-3%,4%,1,-4%
Cc1ccc(Cl)cc1NC(=O)Nc1nnc(N(C)Cc2ccccc2)s1,-2%,i,-3,-6%
COc1ccc(Cl)cc1NC(=O)C(C)OC(=O)Cn1cc(C(F)(F)F)ccc1=O (stereo unspecified),-2%,-8%,-1,-1%
COc1cc(OC)c(NC(=O)c2ccc3c(SCC(=O)O)c4c(nc3c2)CCCC4)cc1Cl,?,-1%,-4,9%
O=C(C(c1ccccc1)N1CCOCC1)N1CCOCC1 (stereo unspecified),-8%,i,3,-2%
Cc1cc2c(cc1S(=O)(=O)N(CCN(C)C)Cc1ccco1)OCC(=O)N2,-9%,-2%,-3,-5%
CCCN1CCN(C(=O)CCCNC(=O)Cn2cnc3sc(C)c(C)c3c2=O)CC1,-4%,-2%,-5,6%
O=C1C(CCS(=O)c2ccccc2)C(=O)N(c2ccccc2)N1c1ccccc1 (stereo unspecified),-4%,i,-7&2,2%
COc1ccc(C2/C(=C(/O)c3ccccc3)C(=O)C(=O)N2C)cc1OC (stereo unspecified),2%,i,-3,2%
CN(Cc1nc2ccc(F)cc2[nH]1)Cc1c(C(=O)N(C)C)nc2ccc(Cl)cn12,5%,0%,-1,-4%
O=C(NCCCN=C1NS(=O)(=O)c2ccccc21)c1ccc(F)cc1,6%,5%,1,1%
C1=C(c2ccccc2)Nc2ccccc2N=C1c1ccccc1,6%,0%,-4,0%
Cc1ccc(C(=O)N/N=C\c2ccc(OC(=O)c3cccc(F)c3)cc2)cn1,-1%,-5%,-1,5%
CC(C)NC(=O)CC(=O)NN=C1CCCCC1,-2%,0%,1,4%
Nn1c(SCC(=O)Nc2ccc(S(N)(=O)=O)cc2)nnc1C(F)(F)F,-1%,-11%,-3,1%
COc1ccc(C(C#N)Nc2ccccc2OC)cc1 (stereo unspecified),14%,i,2,2%
CC(=O)c1cc(C#N)c(N2CCCC2)nc1C,12%,4%,1,0%
O=C(O)c1cccc(-n2cccc2/C=C2\SC(=O)N(Cc3ccccc3F)C2=O)c1,-5%,?,-8,-19%
COc1ccccc1NC(=S)N1CC(C)(C)C1=O,1%,-5%,-1,2%
Cc1nn(-c2ccccc2)c(C)c1C(=O)NCc1ccccc1F,-1%,4%,5,12%
O=C(CSc1nc(O)cc(=O)[nH]1)N1c2ccccc2CCc2ccccc21,-2%,i,-3,-2%
C=CCn1c(CCNC(=O)c2cccs2)nnc1SCC(=O)Nc1cccc(F)c1,-5%,-2%,-6,1%
O=C(N/N=C1\CCCc2ccccc21)C(O)c1ccccc1 (stereo unspecified),1%,-7%[11.5 µM],-4,4%
Cc1ccccc1N(C)S(=O)(=O)c1nnc(NC(=O)c2ccco2)s1,-2%&4%,-5%&-3%,-9&-7,-7%&0%
FC(F)(F)c1cnc(Oc2cccc3ccccc23)c(Cl)c1,?,-2%,-7,0%
Cc1cccc(-n2c(SCC(N)=O)nnc2-c2ccco2)c1,-9%,-6%,7,6%
N#Cc1ccc(-c2cccnc2)nc1SCc1ccc(Cl)c(Cl)c1,-1%,-1%,8,-2%
COc1cc(C)c(S(=O)(=O)NCc2ccc3c(c2)OCO3)cc1C,0%,-7%,0,-6%
O=C(/C=C/NNC(=O)c1ccccc1O)c1ccccc1,13%,-4%,-13,18%
O=C(COC(=O)c1ccc(F)cc1Cl)NCc1ccco1,-15%,-20%,-1,-11%
CC(C)(C)C1N=C(c2ccc3ccccc3c2)OC1=O (stereo unspecified),-1%,-8%,-1,4%
CC1=C(C(=O)Nc2cccnc2)C(c2cccnc2)n2ncnc2N1 (stereo unspecified),4%,5%,4,22%
C/C(CC(=O)Nc1c(C)cc(C)cc1C)=N\NC(=O)OC(C)(C)C,5%,-11%,-1,0%
Cc1cc(C)c(S(=O)(=O)Nc2cccnc2)c(C)c1,0%,-4%,-4,-7%
CC1CC1C(=O)OCC(=O)NC(=O)NCc1ccco1 (stereo unspecified),?,5%,-1,5%
Cc1ccc(Cl)cc1NC(=O)CSc1sc2c(O)cc(=O)[nH]c2c1C#N,3%,i,-1,9%
CC(C)(C)OC(=O)[C@H](Cc1ccccc1)NC(=O)c1nc[nH]c1C(=O)N1CCNCC1,0%,i,-6,0%
O=C(CSc1ccc2nnc(CCNC(=O)c3ccccc3)n2n1)Nc1ccccc1F,12%,4%,8,-3%
CC(C)NC[C@H](O)COc1ccc(CC(N)=O)cc1,3%,8%,3&-2,-12%&-6%
Cc1nn(-c2ccc(Cl)cc2)c2[nH]c(=O)c(CNCc3ccc4c(c3)OCO4)cc12,1%,i,1,-10%

# Record cards (already shown). Order of screens: Pin1 inh | PGK inhibitor | PI4K2A block | GLS inhibitor
# `CC(C)(C)C1N=C(c2ccc3ccccc3c2)OC1=O` (stereo unspecified) reads -1% | -8% | -1 | 4%
# `CC1=C(C(=O)Nc2cccnc2)C(c2cccnc2)n2ncnc2N1` (stereo unspecified) reads 4% | 5% | 4 | 22%
# `O=C(/C=C/NNC(=O)c1ccccc1O)c1ccccc1` reads 13% | -4% | -13 | 18%

# The list continues:
SMILES,Pin1 inh,PGK inhibitor,PI4K2A block,GLS inhibitor
C[C@H](NC(=O)c1nc[nH]c1C(=O)N1CCN(c2ccccc2)CC1)C(=O)OC(C)(C)C,-4%,9%,2,18%
CCc1nn2c(-c3ccco3)ccnc2c1-c1ccc(F)cc1,6%,2%,-4,-10%
O=C(N/N=C/c1ccc(OC(=O)c2ccccc2)cc1)c1cccc(O)c1,3%,0%,-2,0%
Cc1ccc(NC(=O)C(CC(C)C)N2Cc3ccccc3C2=O)cc1F (stereo unspecified),-2%,-10%,-1,2%
COc1ccc(C(=O)/C=C/c2cccc(OCc3ccccc3)c2)cc1CSCC(=O)O,?,-16%,0,14%
CN(C)CCN(Cc1ccco1)S(=O)(=O)c1cc2c(cc1Cl)NC(=O)CO2,11%,i,3,-9%
CCCNCC(O)COc1ccccc1C(=O)CCc1ccccc1 (stereo unspecified),-6%,0%,4&0&4,-1%&2%
c1ccc2c(c1)CCCN2Cc1nnc2n1CCCCC2,nt,i,15,-8%
CN(Cc1ccccc1)C(=O)CCS(=O)(=O)c1cc2c(cc1Cl)NC(=O)CO2,-6%,-1%,-2,0%
CC1(C)CC(=O)C(=C2SCCCS2)C(=O)C1,-1%,-2%,4,4%
COc1ccccc1CCNC(=O)C1CCN(c2nc3ccccc3nc2C(F)(F)F)CC1,-2%,i,3,-5%
COc1ccc(NC(=O)c2c3c(nc4ccccc24)CCC3)cc1S(=O)(=O)N1CCOCC1,nt,-16%,?,-22%
CCOc1ccccc1NC(=O)Cc1cccs1,?,-21%,-8,1%
CN(C)C(=O)COC(=O)c1ccc(S(=O)(=O)NCc2ccco2)cc1,-2%,?,1,?
O=c1oc2ccccc2cc1-c1csc(Cc2nc(-c3ccc(Cl)cc3)cs2)n1,36%[activator],-7%,-3,-1%
CCc1nnc(NC(=O)Cc2cccs2)s1,20%,-4%,-3,47%[activator]
CCOc1ccc(NC(=O)CSc2nnc(Cn3cnc([N+](=O)[O-])n3)n2CC)cc1,-1%,-4%,2,1%
Oc1ccccc1-c1nc(/C=C/c2ccccc2Cl)no1,1%,-2%,6,-11%
COc1ccc(/C=C/C(=O)OCC(=O)c2ccc3c(c2)NC(=O)CO3)c(OC)c1,5%,-3%,-3,-2%
CC1CC(C(F)F)n2nc(C(=O)Nc3sc4c(c3C#N)CCC(C(C)(C)C)C4)nc2N1 (stereo unspecified),0%,0%,2,17%
Cc1c(C)c2ccc(OC(C)C(=O)N3C[C@H]4C[C@@H](C3)c3cccc(=O)n3C4)c(C)c2oc1=O (stereo partly specified),5%,-1%,2,8%
CC1=C(C(=O)Nc2cccnc2)C(c2cccc(F)c2)n2nc(SCc3ccccc3)nc2N1 (stereo unspecified),0%,-8%,3,9%
CC1CCN(S(=O)(=O)c2cn(CC(=O)Nc3ccc(OC(F)(F)F)cc3)cn2)CC1,-4%,6%,-2,0%
O=C(N[C@@H](Cc1ccccc1)C(=O)OCc1ccccc1)c1nc[nH]c1C(=O)NC1CCNCC1,-3%,-4%,4,-2%
COc1ccc(/C=C2/Sc3ccc(C(=O)N4CCOCC4)cc3NC2=O)cc1OC,1%,-8%,2,1%
N#CCCN(CCC#N)C(=O)c1ccc2c(c1)OCO2,-1%,i,-2,-7%
